Source: PubChem
Mtb H37Rv = M. tuberculosis H37Rv growth inhibitors, H37Rv strain (AID 1626) | inhibition, % at 10 µM; hits with a dose series show IC50 in µM | actives 0.95% (n = 220,000) | M. tuberculosis H37Rv growth inhibition; higher % means a stronger effect;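 active = confirmed in a dose series; inconclusive = inhibition above 80% but not taken into the dose series; inactive = below 80% or under 30% at every dose of the series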;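 note: bacteria incubated seven days before Alamar blue readout; 0% = bacteria only wells and 100% = bacteria with antibiotic wells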
Arbovirus inh = blocks arbovirus infection | arbovirus infection cell-based antiviral screen | inhibition, % at 10 µM | actives 0.37% (n = 200,000) | AID 1251;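 active = inhibition from about 30%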;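 note: bluetongue infection of BSR cells; cell survival read as ATP light after 72 h; 0% = infected wells without compound and 100% = uninfected wells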
Mtb betalactam = beta-lactam sensitization of Mtb H37Rv; M. tuberculosis H37Rv growth with meropenem, percent inhibition; hits of this screen are not shown here; inhibition, % at 25 µM; actives 0.27% (n = 330,000); AID 434955;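 active = about 74% or more and at least 40 points above the plate without the antibiotic, then above 30% in a dose series; inconclusive = first-round hits that could not be retested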;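 note: growth measured after seven days incubation then overnight dye step; 0% = bacteria only wells and 100% = bacteria with antibiotic; twin plates without the antibiotic show which effects depend on it; some results filed as inactive read as strong as hits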
RecA splice inh = blocks M. tuberculosis RecA intein splicing; cell-free RecA intein splicing, fluorescence; inhibition, %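 (about 9 µM by stock and volumes)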; actives 0.75% (n = 290,000); in the data active = inhibition above about 30%; inconclusive = no clear call, values can overlap the other calls;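 note: 0% = vehicle wells and 100% = reference inhibitor control wells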
Target sequence (P9WHJ3 whole entry, looked up, canonical isoform): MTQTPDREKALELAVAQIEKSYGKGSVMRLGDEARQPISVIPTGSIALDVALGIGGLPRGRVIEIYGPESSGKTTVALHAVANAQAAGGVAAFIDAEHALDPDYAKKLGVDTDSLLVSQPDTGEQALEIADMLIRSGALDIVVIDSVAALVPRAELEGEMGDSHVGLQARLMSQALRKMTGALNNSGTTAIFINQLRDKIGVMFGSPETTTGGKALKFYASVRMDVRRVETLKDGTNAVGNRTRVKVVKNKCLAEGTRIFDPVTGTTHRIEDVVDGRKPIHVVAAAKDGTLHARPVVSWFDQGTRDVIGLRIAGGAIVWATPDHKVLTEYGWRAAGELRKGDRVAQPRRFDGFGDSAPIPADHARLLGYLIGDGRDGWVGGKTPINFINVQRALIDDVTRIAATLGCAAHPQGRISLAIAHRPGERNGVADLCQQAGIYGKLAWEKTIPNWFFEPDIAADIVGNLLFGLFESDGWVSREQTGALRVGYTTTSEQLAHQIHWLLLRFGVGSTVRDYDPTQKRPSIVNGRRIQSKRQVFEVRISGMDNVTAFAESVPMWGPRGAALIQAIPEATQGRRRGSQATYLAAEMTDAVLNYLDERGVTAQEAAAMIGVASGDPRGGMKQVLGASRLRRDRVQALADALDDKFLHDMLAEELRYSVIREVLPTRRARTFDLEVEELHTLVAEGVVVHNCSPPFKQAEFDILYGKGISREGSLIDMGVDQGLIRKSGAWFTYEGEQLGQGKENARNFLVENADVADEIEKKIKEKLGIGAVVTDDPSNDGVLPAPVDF
YopH inh = YopH (Yersinia) phosphatase inhibition. fluorescence Ex485/Em525. inhibition, %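 (about 10 µM by stock and volumes)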. actives 0.16% (n = 140,000). AID 898;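 active = inhibition of 50% or more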;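 note: controls were vehicle for no effect and minimum signal wells for full effect; inactives centre near -20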
Arbovirus inh repeat = also measured in Arbovirus inh; calls as there; inhibition, %; measured here: 10K subset replicate screen; many hits read low in the repeat;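 first of two repeat runs on a subset; 0% = infected and 100% = uninfected wells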
* marks the source's active call; other numbers are inactive results; ? = inconclusive; . = not tested or not shown. These rows are one share of the data; the hit share may differ from the screen's.

SMILES	Mtb H37Rv	Arbovirus inh	Mtb betalactam	RecA splice inh	YopH inh	others
O=C(CSc1nnc(SCc2ccccc2)s1)N/N=C/C=C/c1ccco1	.	-11	-6	1.8	-25
COc1cccc(OC)c1OCCNC(C)(C)C	-2%	4	-4	.	-35
CC(C)(C)OC(=O)N1CCC[C@H]1c1nnc(SC/C=C/c2ccccc2)o1	-2%	-7	-8	3.8	-9
COc1ccc(NC(=O)CN(C)CC(=O)Nc2ccc(N3CCOCC3)cc2)c([N+](=O)[O-])c1	-10%	1	-1	-4.4	.
COc1cc(C(C)=O)ccc1OCCN1CCC(Cc2ccccc2)CC1	2%	-16	4	4.4	.
O=C(Cc1cccs1)NC1CCCC1	-3%	-3	-2	0.2	.
N/C(=N\OC(=O)c1cccc([N+](=O)[O-])c1)c1ccccn1	15%	-3	2	-2.0	.
COc1ccc(C2=NN(C(=O)CCC(=O)O)C(c3ccc([N+](=O)[O-])cc3)C2)cc1 (stereo not given)	.	.	0	0.9	.
Cc1ccc2nc(-c3cccnc3)c(Nc3ccccc3C)n2c1	6%	-5	1	-0.6	.
CCn1c(SCC(=O)N2CCCc3ccccc32)nc2c1c(=O)n(C)c(=O)n2C	2%	2	-16	0.1	-13
O=C(/C=C/c1c(F)cccc1Cl)NCCCN1CCOCC1	.	.	4	0.9	.
Nc1cc(N)nc(SCCc2ccccc2)n1	.	.	-5	0.6	.
NC(=O)C1CCN(c2ccc(C(F)(F)F)cn2)CC1	1%	4	-5	-1.3	.
O=C(CCC1CCCC1)N1CCN(C(=O)c2cccnc2)CC1	-8%	-1	-9	2.1	-24
O=C1CCC(=O)N1CCCCCc1nc(-c2ccccc2)no1	6%	8	-10	0.7	31
COCCn1c(N)c(N(Cc2ccccc2)C(=O)C2CCCCC2)c(=O)[nH]c1=O	-2%	4	-4	1.2	.
COc1ccc(N(C)C(=O)c2cc3c(s2)-c2ccccc2S(=O)(=O)C3)cc1	6%	.	-5	-0.4	.
COC(=O)CN(c1ccccc1F)S(=O)(=O)c1ccccc1	-8%	-2	-9	3.0	-21
CCN(CC1COc2ccccc2O1)C(=S)NCCCN(C)C (stereo not given)	2%	-12	-10	-1.5	.
CCSc1nnc(NC(=O)c2cc(C)nc3ccccc23)s1	2%	10	48	3.2	-156
COc1ccc(CCNC(=O)C2CCC(C(C)(C)C)CC2)cc1OC (stereo not given)	.	.	0	1.2	.
COc1cccc(C(=O)c2c[nH]c(C(=O)NCc3cccnc3)c2)c1	-5%	3	7	-6.6	.
O=C(O)/C=C/C(=O)Nc1ccc(OC(F)(F)F)cc1Br	0%	.	-9	6.3	.
O=c1[nH]c2ccc(S(=O)(=O)NCc3ccccc3)cc2[nH]1	-10%	-1	6	0.3	.
O=C(Nc1ccc(F)cc1F)N1CCCN(CCOc2ccccc2)CC1	0%	.	-2	2.1	.

Brought forward from above: 5 entries; new compounds follow.
SMILES	Mtb H37Rv	Arbovirus inh	Mtb betalactam	RecA splice inh	YopH inh	others
COc1ccc(CCNC(=O)C2CCC(C(C)(C)C)CC2)cc1OC (stereo not given)	.	.	0	1.2	.
COc1cccc(C(=O)c2c[nH]c(C(=O)NCc3cccnc3)c2)c1	-5%	3	7	-6.6	.
O=C(O)/C=C/C(=O)Nc1ccc(OC(F)(F)F)cc1Br	0%	.	-9	6.3	.
O=c1[nH]c2ccc(S(=O)(=O)NCc3ccccc3)cc2[nH]1	-10%	-1	6	0.3	.
O=C(Nc1ccc(F)cc1F)N1CCCN(CCOc2ccccc2)CC1	0%	.	-2	2.1	.
O=C(COc1ccc2ccc(=O)oc2c1)Nc1ccc(CN2CCOCC2)cc1	.	.	4	-2.8	.
O=C(Nc1ccc2nc(SCc3ccc(Cl)cc3)sc2c1)c1ccccc1C(=O)N1CCOCC1	5%	-19	-8	-2.6	-36
O=C(c1ccco1)N1CCN(/C(=N/S(=O)(=O)c2cccs2)c2ccccc2Cl)CC1	-11%	5	-4	0.6	12
C=CCc1cc(C)ccc1OCCCn1ccnc1	.	.	39	-3.1	.
Cc1nc(SCC(=O)N2CCN(c3ccccc3)CC2)c2oc3ccccc3c2n1	61%	-13	98	2.4	-35
Cc1ccc(S(=O)(=O)CC(=O)N2CCN(c3ccccc3F)CC2)cc1	.	.	-3	-2.1	.
Cc1ccc(Nc2nc3ccccc3s2)c(C)c1	12%	15	11	4.3	-22
COc1cccc(N2CC(C(=O)Nc3nnc(SCc4cccnc4)s3)CC2=O)c1 (stereo not given)	-5%	5	-4	-1.4	-17
CC(=O)c1cccc(Nc2nc3ccccc3n3cnnc23)c1	.	.	2	4.4	.
COc1nnc(-c2ccc(N3CCOCC3)c(NC(=O)c3ccccc3)c2)c2ccccc12	-1%	-7	-7	1.7	-13
Cc1oc(-c2cccc(Cl)c2)nc1CSc1nc2c(c(=O)[nH]1)CCC2	-2%	9	-1	1.9	-18
CN(C(=O)COC(=O)CSc1ccc(C(N)=O)cc1[N+](=O)[O-])C1CCS(=O)(=O)C1 (stereo not given)	.	.	4	-2.2	.
S=c1[nH]nc(-c2ccc(Cl)cc2)n1/N=C/c1cccs1	5%	.	-1	-0.6	.
CCN(C(=O)COC(=O)c1cc(-c2cccc3ccccc23)nc2ccccc12)C1CCS(=O)(=O)C1 (stereo not given)	-1%	3	4	2.9	-28
CCOc1ccc(C2CC(c3ccccc3C)n3ncnc3N2)cc1 (stereo not given)	6%	-1	16	-0.1	-7	Arbovirus inh repeat=3
Cc1nnc(NC(=O)c2ccccc2NC(=O)c2ccccc2)s1	4%	.	-6	0.7	.
Cc1nccn1C[C@@H]1CCc2c(c3ccccc3n2C)C1=O	.	.	-8	1.3	.
COc1ccccc1C(=O)Nc1nc2nc(-c3ccccc3)cc(=O)n2[nH]1	?	12	98	2.0	13
CCC(=O)Nc1c(C(=O)Nc2cccc(OC)c2)oc2ccccc12	3%	-4	9	-1.2	-42
COC(=O)c1cc(=O)cc(C(=O)OC)o1	-13%	13	1	0.2	3
N#CCc1ccc(OC(=O)c2cnccc2C(F)(F)F)cc1	.	.	4	-0.6	.
Cc1cc(C)nc(Nc2ncc(O)n2-c2ccc(Br)cc2)n1	1%	3	1	-4.1	.
CCC(=O)Nc1ccc(C(=O)Nc2cccnc2)cc1	1%	-3	-8	0.0	-7
O=C(CNC(=O)c1ccco1)N=Nc1c(O)[nH]c2ccc(Br)cc12	.	.	0	1.9	.
O=C(Nc1scc(-c2ccccc2)c1C(=O)O)c1ccccc1F	.	.	6	0.8	.

Remaining list, next part
SMILES	Mtb H37Rv	Arbovirus inh	Mtb betalactam	RecA splice inh	YopH inh	others
O=C(O)c1cccc(CN2C(=O)CSC2=O)c1	-8%	11	7	-1.7	-14	Arbovirus inh repeat=5
CCOC(=O)C1=NN(C(=O)Nc2cccc(C(F)(F)F)c2)C2C(=O)N(c3cccc(C(F)(F)F)c3)C(=O)C12 (stereo not given)	3%	8	-10	-2.9	-46
CC(C)CN(C(=O)c1ccc(=O)n(C)n1)c1nc2ccccc2s1	-11%	6	-3	1.4	-3
COc1ccc([C@H]2C=C3CN(C(=O)OC(C)(C)C)S(=O)(=O)[C@H]3C[C@H]2OC(=O)c2cccs2)cc1	-11%	.	-6	3.2	.
COc1ccc(-c2cn(-c3ccc(C)cc3)c(=O)n2CC(=O)Nc2ccc(OC)c(OC)c2)cc1	4%	-1	-1	-1.0	-2
Cc1ccc(N(CC(=O)NCc2ccccc2)C(=O)c2csnn2)cc1	.	.	4	0.6	.
O=C1/C(=C\Nc2ccc(OC(F)(F)F)cc2)CCN1c1ncccn1	2%	-5	-5	-2.9	-32
Cc1ccc(NC(=O)CCC(=O)c2cccs2)nc1	.	.	0	1.4	.
Cc1cc(/C=N/n2cnnc2)c(C)n1-c1ccc2ncccc2c1	.	.	2	0.3	.
CCSc1nnc2n(-c3ccc(OC)cc3)c(=O)c3c4c(sc3n12)CCCC4	-4%	-23	28	-0.7	-16
O=C(/C=C/c1ccc(O)cc1)c1ccc(O)cc1O	2%	-9	38	1.4	-12
CCOc1ccc(C(C)=O)cc1CSc1nnc(-c2ccoc2C)n1N	-9%	2	12	2.2	-2
CNC(=O)c1cc(C(=O)c2c(Cl)cccc2Cl)c[nH]1	-1%	-5	0	1.6	.
CN1CCN(C(=S)Nc2ccc(Oc3ccccc3)cc2)CC1	2%	-6	-1	2.3	.
CC(C)=CC(=O)N1CCCC(N2CCN(c3ccc(F)cc3)CC2)C1 (stereo not given)	.	.	-2	-1.0	.
CCC1(C)Cc2c(sc(NC(=O)CCC(=O)O)c2C#N)CO1 (stereo not given)	.	8	0	-0.1	-30
COc1cc(C(=O)NCC(=O)N2CCN(S(=O)(=O)c3ccccc3)CC2)cc(OC)c1OC	.	.	-10	-2.2	.
CCCCCOC(=O)C1[C@H]2C(=O)N(CCCOC)C[C@]23C=C[C@H]1O3 (stereo not given in full)	-5%	-2	-7	1.6	-36
CCOC(=O)N1CCc2c(sc3c2C(=O)NC(c2ccccc2)N3)C1 (stereo not given)	.	-6	2	-2.8	-7
CC(C)CC(=O)Nc1nnc(SCC(=O)Nc2ccc(F)cc2)s1	1%	18	4	2.0	.
Cc1ccc(Cn2c(C(C)Nc3nc(-c4ccc(C)cc4)cs3)nc3cc(Cl)c(Cl)cc32)cc1 (stereo not given)	.	.	-8	-1.2	.
CCOC(=O)c1ccc(NC(=O)CSc2nc3cccnc3n2C)cc1	-6%	12	-6	-0.3	1
N#C/C(=C\c1ccc(Cl)cc1)c1n[nH]c(Cn2cncn2)n1	-12%	1	21	3.3	-27
CC(OC(=O)C1CCN(c2ccc(C(F)(F)F)cn2)CC1)C(=O)c1ccccc1 (stereo not given)	.	.	-7	1.0	.
CC(Sc1cccc[n+]1[O-])C(=O)Nc1cccc([N+](=O)[O-])c1 (stereo not given)	6%	2	0	-2.5	.

Next part.
SMILES	Mtb H37Rv	Arbovirus inh	Mtb betalactam	RecA splice inh	YopH inh	others
CC(C)(C)n1nc2c(c1NC(=O)c1cccc(Cl)c1)CS(=O)(=O)C2	.	.	-5	0.2	.
COc1cc(CCN2C(=O)c3cccc4cccc(c34)C2=O)c(S(=O)(=O)N2CCCCCC2)cc1OC	6%	12	9	0.5	8
N#Cc1cccc(NC(=O)CSc2n[nH]c(=O)[nH]c2=O)c1	3%	-1	-3	2.5	.
CCN(C(=O)CSc1nnc(NCc2ccccc2)s1)C1CCS(=O)(=O)C1 (stereo not given)	3%	5	-6	2.0	.
CCCc1cc(=O)[nH]c(-n2[nH]c3c(c2=O)CCCC3)n1	.	-29	96	-3.0	-34
CC1S/C(=N/N=C/c2cccs2)NC1=O (stereo not given)	-2%	-1	22	-0.4	-37
Cc1nn(C(C)(C)C)c(OC(=O)c2ccc(Br)o2)c1Sc1ccccc1	0%	0	-5	-1.5	-22
COc1cccc(C(=O)COc2cccc(NC(=O)c3cccc([N+](=O)[O-])c3)c2)c1	2%	-37	-11	.	-14
CCCC(=O)Nc1sc2c(c1C#N)CC(C)(C)NC2(C)C	-3%	-5	-14	2.4	-9
CCOc1ncccc1C(=O)OCC(=O)Nc1cc(S(=O)(=O)N2CCOCC2)ccc1Cl	-4%	0	8	1.0	-34
CCN(CC)S(=O)(=O)c1cccc(C(=O)N/N=C/c2c(C)nn(-c3ccccc3)c2Cl)c1	-6%	8	5	-0.5	-27
O=C(OCC(=O)N1CCCc2ccccc21)c1cccc(S(=O)(=O)N2CCc3ccccc32)c1	10%	1	6	-0.3	-31
Clc1ccc(C2=Nn3c(nnc3-c3cccs3)SC2)cc1	0%	-14	12	3.0	-20
Cc1ccc(S(=O)(=O)NCC(=O)N(CC(=O)NCc2ccc(F)cc2)CC2CCCO2)cc1 (stereo not given)	.	.	0	0.6	.
Cc1cc(C)nc(Nc2ccc(N3CCCC3)cc2)n1	8%	-4	-8	-0.6	-14
CN(C)C=NC(=O)c1[nH]c2ccc(Cl)cc2c1-c1ccccc1	.	.	8	12	.
Cc1ccccc1NS(=O)(=O)c1cc(C(=O)N2CCc3ccccc3C2)ccc1C	.	-18	-4	10	-9
COc1ccccc1C1OC2=C(Nc3ccc([N+](=O)[O-])cc3N2)C1=O (stereo not given)	1%	.	2	-0.8	.
CSCCC(NC(=O)c1ccco1)C(=O)Nc1ccc(C)c(S(=O)(=O)N2CCOCC2)c1 (stereo not given)	.	.	-4	-2.6	.
COc1ccccc1CC(=O)Nc1ccon1	.	.	0	1.8	.
Cc1cccc(OCCN2C(=O)C(=O)c3cc(C)ccc32)c1	3%	-17	-5	4.5	.
COc1cccc(C2/C(=C(/O)c3ccc4c(c3)CC(C)O4)C(=O)C(=O)N2CCCn2ccnc2)c1 (stereo not given)	.	.	1	-5.5	.

A section from the list above, as a working copy:
SMILES	Mtb H37Rv	Arbovirus inh	Mtb betalactam	RecA splice inh	YopH inh	others
O=C(CSc1nnc(SCc2ccccc2)s1)N/N=C/C=C/c1ccco1	.	-11	-6	1.8	-25
COc1cccc(OC)c1OCCNC(C)(C)C	-2%	4	-4	.	-35
